# D2 agonist – agonists of human D2 dopamine receptor (beta-arrestin); P14416; DiscoveRx PathHunter D2 beta-arrestin, luminescence, 90 min; 100% = 57 uM dopamine signal; activation, % (concentration not given with the values); 0.084% of 360,000 active; AID 624465; in the data active = activation above about 40%; inconclusive = about 15% to 40%; inactive = below about 15%; further: compound concentration not given in the record; the text of the record calls up to 30% inactive
# Target sequence (P14416 whole entry, looked up): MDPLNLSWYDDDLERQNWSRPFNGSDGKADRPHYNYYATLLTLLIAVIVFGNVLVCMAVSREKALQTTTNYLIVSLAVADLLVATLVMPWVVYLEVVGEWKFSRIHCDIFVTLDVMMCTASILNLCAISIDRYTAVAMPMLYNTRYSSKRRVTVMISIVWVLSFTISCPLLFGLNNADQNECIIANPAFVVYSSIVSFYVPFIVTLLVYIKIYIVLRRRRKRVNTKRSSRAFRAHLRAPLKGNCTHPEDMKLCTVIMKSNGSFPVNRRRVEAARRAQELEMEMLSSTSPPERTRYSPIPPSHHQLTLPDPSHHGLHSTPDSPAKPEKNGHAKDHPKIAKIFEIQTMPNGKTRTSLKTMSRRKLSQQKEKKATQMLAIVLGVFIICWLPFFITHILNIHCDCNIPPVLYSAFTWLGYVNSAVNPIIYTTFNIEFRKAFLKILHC
#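 Agonist mode: compounds alone added to overnight-plated D2 PathHunter cells for 90 min at 37 C, with 57 uM final dopamine (EC100) defining full response. Beta-arrestin recruitment detected by chemiluminescent reagent, read after 1 h at ambient temperature.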
# gsp agonist – activates gsp, the McCune-Albright syndrome mutation; gsp mutant cells, cAMP HTRF, 30 min; control for the full effect not named in the record; Potency, µM (doses to about 76.9 µM), without a hit: at the highest dose activation (cAMP increase), hits mostly activators; 0.13% of 340,000 active; AID 624287; active = well fitted activation curve with a large enough effect; inconclusive = small, poorly fitted or top-dose-only effect, or another doubt; inactive = no such curve, though single readings can be large or run the other way; cell line not stated here;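 further: phosphodiesterase inhibitor Ro 20-1724 added with compounds to block cAMP breakdown; potency means the concentration at half of the fitted maximal effect; nearly all actives have a fitted effect of over 60% in size; about a fifth of the inactives were tested at one dose only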
#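 Cells in DMEM/10% FBS with G418 were pretreated with compounds in DMSO plus […] (300 uM stock) for 30 min at 37C. cAMP was measured by HTRF (cAMP-d2 plus anti-cAMP antibody-K) after 30 min at room temperature.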
# Sfp inh – Sfp phosphopantetheinyl transferase inhibition; Biochemical Sfp PPTase activity, qHTS; Potency, µM, for the others: max response, negative = inhibition, usual class: inhibitors; 3.5% of 310,000 active; active means well fitted inhibition curve with a large enough effect; inconclusive means small, poorly fitted or top-dose-only effect, or another doubt; inactive means no such curve, though single readings can be large or run the other way;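 further: the enzyme is Sfp with the accession as filed and its product quenches rhodamine fluorescence; potency means the concentration at half of the fitted maximal effect; 0% = enzyme reaction without inhibitor and -100% = no enzyme wells; top concentration of the series not given in the record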
#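 With Hepes-Na pH 7.6 buffer containing 10 mM MgCl2, Sfp (15 nM) modified BHQ-2-YbbR (12.5 uM) using rhodamine-CoA (5 uM). Two reads 30 minutes apart at 525/598 nm yielded each well's rate.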
# gsp antagonist – antagonists of gsp mutant (McCune-Albright syndrome) | gsp-mutant cells, cAMP HTRF, 30 min; control for the full effect not named in the record | 0.4% of 340,000 active | AID 624288 | Potency, µM (highest dose often 76.9 µM), without a hit: top-dose activity change, negative = inhibition, hits mostly inhibitors; active = falling curve of any shape with a large fitted effect; inconclusive = falling curve, mostly with a smaller effect; inactive = flat or rising curve; cell line not stated here;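 further: intracellular cAMP measured with PDE inhibitor Ro 20-1724 present during compound exposure; potency means the concentration at half of the fitted maximal effect; on the % scale 0 is the no-effect control and ±100 the full control effect; nearly all actives have a fitted effect of over 65% in size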
#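 Measurement of cellular cAMP by homogeneous time-resolved fluorescence following a 30 min compound exposure at 37C. The PDE inhibitor […] was present throughout; the assay buffer was DPBS with 0.05% BSA and 0.005% Tween 20.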
# ClpP mod – qHTS Assay for Activators of ClpP. purified B. subtilis ClpP, FRET peptide cleavage, 20 min. 1.9% of 340,000 active. AID 651965, 2013. ATP-dependent Clp protease proteolytic subunit (Bacillus subtilis (strain 168)), P80244. Potency, µM (series often up to 57.5 µM), without a hit: at the top dose activity change, negative = active; active = well fitted falling curve with a large enough effect; inconclusive = small, poorly fitted or top-dose-only effect; inactive = no such curve, though single readings can be large or run the other way; further: potency means the concentration at half of the fitted maximal effect; the source files actives as falling curves though it sought activators and does not explain the sign; nearly all actives have a fitted effect of over 65% in size; many hits overshoot -100%
# Target sequence (P80244 whole entry, looked up): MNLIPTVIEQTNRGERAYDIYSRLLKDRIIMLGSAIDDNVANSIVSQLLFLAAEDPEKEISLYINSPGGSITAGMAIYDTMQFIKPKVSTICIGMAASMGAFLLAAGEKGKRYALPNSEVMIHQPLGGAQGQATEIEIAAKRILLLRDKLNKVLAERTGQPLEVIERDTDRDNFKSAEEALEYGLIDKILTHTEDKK
#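 FRET quenching reversal measured ClpP activation: 10 microg/mL B. subtilis ClpP at pH 8 with the FRET-FV decapeptide, read at 430 nm after 320 nm excitation. The 20-min minus 0-min signal was scaled between DMSO/no-enzyme wells and ADEP (5.8 microM final).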
# PINK1 modulator – modulators of PINK1 expression | PINK1 immunofluorescence, high-content cytometry, 24 h | Potency, µM (doses to about 76.6 µM), for the others: at the highest dose activation (PINK1 increase), actives largely listed as activators | 0.2% of 410,000 active; active = well fitted activation curve with a large enough effect; inconclusive = small, poorly fitted or top-dose-only effect; inactive = flat fitted curve, though single readings scatter; cell line not stated here;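 further: potency means the concentration at half of the fitted maximal effect; % of control where 0% means no effect; nearly all actives have a fitted effect of over 65% in size; a mitochondrial uncoupler was the plate control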
#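 Compound titrations (5 concentrations, 24 h) on a stable cell line; DMSO and CCCP controls. Endpoint: fixed-cell PINK1 immunofluorescence with mitochondrial, cell and nuclear markers, scanned by microplate cytometer.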
# Menin-MLL FL inh – menin-MLL binding inhibition, fluorescein peptide; AID 1766; FP activity change, % at 61.4 µM; 290,000 tested, under 10 active; Fluorescence polarization, fluorescein-MLL peptide displacement from menin; inconclusive = falling polarisation curve, or a change in total fluorescence; inactive = total fluorescence flat and polarisation flat or rising; no compound was filed as active; the % refers to the polarisation; negative = inhibition;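 further: % of control where 0% means no effect; inhibitors lower the polarisation; unlabelled MLL peptide was the positive control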
# Starred values were filed as active, the others as inactive; ? = inconclusive; nt = not tested or not shown; & = joins results of further samples; [ ] = dose if it differs, or a comment. This is a random part of the collection; overall some 5.1% were active at least once.
SMILES,D2 agonist,gsp agonist,Sfp inh,gsp antagonist,ClpP mod,PINK1 modulator,Menin-MLL FL inh
c1ccc(CN2CCC3CC2c2c3cccc2N2CCOCC2)cc1 (centres undefined),-4.5,nt,nt,nt,0.4%,9.6%,nt
COc1ccccc1N1CCN(C2CC(=O)N(c3ccc(Cl)cc3)C2=O)CC1 (centres undefined),2.9,8%[15.4 µM],7%,-3%,-1.7%,-1.2%,-0.7
O=C(NCc1cccnc1)NC1(c2ccccc2)CC1,9.9,0%,22%,8%,-2.4%,0.3%,0.8
O=c1/c(=C/c2ccc([N+](=O)[O-])cc2)sc2n1CCCN=2,1.1,6%,-6%,-1%[15.4 µM],-1.2%,-0.7%,-0.6
COc1ccc(-c2c(O)c3c(OC)c4c(cc3oc2=O)OC(C)(C)CC4)cc1,nt,nt,19%,nt,nt,0.2%,1.3
C/C(=N\NC(=O)c1ccc(CSc2nncn2C)cc1)c1cccs1,7.2,-1%,9%,4%,nt,2.3%,-0.7
C=CCSc1nnc(-c2ccc([N+](=O)[O-])cc2)o1,?,-48%[inhibitor],9%,-3%,-1.4%,0.8%,-4.4
N#Cc1cc(S(=O)(=O)c2ccc(Cl)cc2)c(N)[nH]c1=O,-0.8,-38%[inhibitor],20%,11%,-15%,1.4%,1.0
COc1ccc(CCNC(=O)c2ccccc2SC)cc1,-3.4,2%[15.4 µM],9%,-13%,?,1.0%,-0.9
CC(C)(C)n1nnnc1C(c1cc2cc3c(cc2[nH]c1=O)OCCO3)N1CCSCC1 (centres undefined),-1.1,10%,-1%,-18%,25µM*,nt,2.7
Cc1cccc(C(=O)Oc2ccc(/C=N/NC(=O)c3ccc(O)cc3)cc2)c1,12,-12%[15.4 µM],1%,-19%,30%,8.4%,4.0
Clc1ccc(-c2nnc(-c3ccc(Br)cc3)c(N3CCSCC3)n2)cc1,-3.8,25%,5%,2%,0.9%,-1.1%,6.3
COC(=O)c1ccc(NC(C(=O)OC)C(C)C)c([N+](=O)[O-])c1 (centres undefined),2.4,24%,-12%,-3%,-2.5%,1.5%,0.5
COC(=O)c1cccc(NC(=O)c2onc3c2CCCC3)c1,-3.2,-2%[15.4 µM],4%,7%,0.7%,?,2.4
O=C(Nc1ncc([N+](=O)[O-])s1)c1ccco1,0.4,-18%,6%,?,-0.3%,0.5%,nt
CCN(CC)c1ncnc2c1ncn2[C@H]1CN(Cc2cc(OC)c(OC)c(OC)c2)C[C@@H](CO)O1,-2.0,nt,nt,nt,1.2%,0.0%,nt
O=C(Nc1cc(S(=O)(=O)N2CCOCC2)ccc1N1CCOCC1)c1ccc(Cl)nc1,-0.6,?,25%,2%,-0.1%,1.1%,1.6
Cc1[nH]n(-c2ccc(C(=O)O)cc2)c(=O)c1CCO,6.4,2%,7%,10%,nt,-3.5%,0.5
O=C(NCC(c1cccs1)N1CCOCC1)c1cc(-c2ccc(F)cc2)nc2ccccc12 (centres undefined),-4.1,5%[15.4 µM],17%,-48%,nt,-0.3%,-1.9
CN(C)S(=O)(=O)N(CC(=O)Nc1cccc(F)c1)c1ccccc1,1.5,-5%,-11%,-12%,0.2%,2.5%[38.3 µM],3.9
NC(=O)N/N=C/c1coc2ccc(O)cc2c1=O,-2.2,28%,-14%,5%,1.2%,2.2%,5.6
COC(=O)Nc1cc(C)nc2ccccc12,0.9,-29%,13%,-3%,-4.7%,-2.3%,-2.9
CCC(OC(=O)c1ccco1)C(=O)NCc1ccco1 (centres undefined),-3.2,-34%[inhibitor],3%,2%,-0.5%,2.7%,-0.1
Cc1cc2c(c(=O)n1Cc1ccco1)C(c1cccnc1)C(C#N)=C(N)O2 (centres undefined),-0.6,-3%,-21%,-4%,1.8%,-1.3%,-2.0
CCCn1c(-c2cccs2)nc2c1c(=O)[nH]c(=O)n2Cc1ccccc1,-0.3,?,6%,-4%,nt,12%,-1.6

# The list goes on.
SMILES,D2 agonist,gsp agonist,Sfp inh,gsp antagonist,ClpP mod,PINK1 modulator,Menin-MLL FL inh
Cc1c(C(=O)NC(=S)Nc2cccnc2)cccc1[N+](=O)[O-],-1.2,-36%[inhibitor],4%,13%,-0.9%,6.3%,nt
OCC[C@H]1NCc2cc(CO)cc(-c3ccccc3)c21,-0.6,nt,nt,9%,-2.4%,-0.6%,nt
COc1ccc(Cc2noc(CN3CCN(c4ccc(Cl)cn4)CC3)n2)cc1OC,-5.5,-15%[15.4 µM],4%,-14%,-0.3%,0.4%,0.1
O=c1[nH]ncc(N/N=C/c2ccccc2)c1Cl,-1.8,-50%[inhibitor],17%,0%,-3.3%,-5.5%[38.3 µM],0.8
C=CCOc1cc(OC)c(OC)c(OC)c1,8.8,-2%,0%,2%,-2.8%,1.2%,0.6
Cc1nc2c(C#N)cnn2c2c1CCNN2C,2.1,25%[15.4 µM],-8%,-13%,nt,-0.4%,-0.7
Cn1c(SCC(=O)c2cccs2)nnc1-c1ccco1,1.1,-7%,22µM*,-5%,-1.4%,6.3%[38.3 µM],1.8
CCCCn1c(SCC(=O)Nc2cc(C)on2)nnc1-c1ccncc1,-5.1,-33%[inhibitor],12%,-9%,nt,-2.0%,-6.3
Cc1cccc2cc(-c3nc4c(C)cccn4c3NCc3ccco3)c(=O)[nH]c12,-0.7,-23%,14%,-9%,-0.4%,-0.7%,4.9
COc1ccc(CC(=O)OCC(=O)N2c3ccccc3CC2C)cc1OC (centres undefined),-1.8,-66%[inhibitor],nt,nt,-2.2%,-1.4%,nt
Cc1ccc(C(CC(=O)NCc2ccco2)c2ccccc2)c(O)c1 (centres undefined),-3.4,-48%[inhibitor],5%,-20%,1.0%,5.4%[38.3 µM],2.1
CCCCn1c(N)c(N(CC(C)C)C(=O)COC(=O)Cc2c(C)nc3ccccc3c2C)c(=O)[nH]c1=O,-6.0,-15%[15.4 µM],7%,1%,0.9%,1.7%,nt
CSc1ccccc1NC(=O)CN(c1cccc(C)c1)S(C)(=O)=O,-2.5,-17%,11%,-8%,0.0%,-0.2%[38.3 µM],2.8
CCOC(=O)C1=C(COC(=O)CCc2ccc(CC)cc2)NC(=O)NC1C (centres undefined),7.0,-1%,nt,4%,0.0%,-1.4%,nt
Cc1ccc(NC(=O)CCNS(=O)(=O)c2ccc(Br)s2)cc1,-7.1,-1%[15.4 µM],8%,2%,-3.3%&1.1%,2.3%&0.7%,-16
CCCOc1ccc(C(=O)Nc2cccnc2)cc1,-1.3,-9%,2%,-9%,-1.2%,1.1%,0.4
C/C(=N/OC(=O)c1ccc(C)cc1)c1cccs1,-2.1,?,-7%,11%,0.7%,0.3%,1.5
CSc1nc(=O)n2cccc(C)c2n1,-1.4,1%,22%,-2%,-7.9%,6.1%[38.3 µM],1.6
COc1ccc(OC)c(Nc2ccc(Nc3cc(OC)ccc3OC)nn2)c1,0.0,-3%[15.4 µM],7%,?,-3.1%,-2.4%,0.2
Cc1nn(-c2cc(C)c3ccccc3n2)c2c1C1C(C2)C1(C)C (centres undefined),-0.8,-11%,4%,-3%,-29%,8.7%[38.3 µM],4.6
CCCCCCN1CC(=O)N2Cc3[nH]c4ccccc4c3C[C@H]2C1=O,2.5,-17%[15.4 µM],13%,-1%,nt,3.6%,-3.0
CC(C)N(Cc1ccccc1)C(=O)COC(=O)c1ccc(S(=O)(=O)N2CCOCC2)cc1,-2.7,1%[15.4 µM],nt,0%,1.8%,-0.6%,nt
Cc1nn(-c2ccccc2)c(-c2ccccc2[N+](=O)[O-])c1C(=O)O,-3.8,-7%[15.4 µM],7%,-34%,nt,0.3%,-0.5
NC(=O)CSc1ccc(Br)cc1,-0.6,-12%,14%,8%,1.7%,-1.0%,1.7
Cc1c(Cl)cccc1NC(=O)CC1Sc2ccccc2NC1=O (centres undefined),-1.4,?,6%,-18%,0.3%,0.8%,1.5

# Further compounds follow.
SMILES,D2 agonist,gsp agonist,Sfp inh,gsp antagonist,ClpP mod,PINK1 modulator,Menin-MLL FL inh
O=[N+]([O-])c1cc(C(F)(F)F)ccc1Cl,-4.9,nt,nt,8%,-3.2%,-0.6%,nt
CCOc1cccc(/C=N/Nc2ccc(S(=O)(=O)N(CC)CC)cn2)c1O,-8.3,-21%,-2%,9%,1.1%,2.5%,10
Cn1c(=O)c2c(nc(NCCNC(=O)c3ccco3)n2Cc2ccccc2Cl)n(C)c1=O,1.7,7%,7%,-1%,-2.8%,12%,-0.8
CC(=O)N1CCN=C1SCc1ccc(Cl)cc1,-5.4,?,13%,8%,-0.7%,0.5%,-1.3
CN(C)CCOCCP(=O)(c1ccccc1)c1ccccc1,-3.4,?,0%,2%,0.6%,-6.3%[38.3 µM],-1.8
CCCCCCCCCCOC(=O)Cn1c(COc2cccc(C)c2)[n+](C)c2ccccc21,-12,?,56µM*,-5%,nt,-2.0%,-0.4
Cc1ccc(NC(=O)COC(=O)c2sccc2C)cc1S(=O)(=O)N1CCOCC1,0.3,-32%[inhibitor],20%,-7%,nt,4.7%,-6.1
Cc1ccc(NC(=S)NCC2CCN(C(C)c3ccccc3)C2)cc1 (centres undefined),-2.7,18%,-24%,15%,nt,-0.5%,6.0
O=C(Nc1ccccc1Cl)c1cc(S(=O)(=O)N2CCC3(CC2)OCCO3)ccc1F,1.0,-92%[inhibitor],nt,nt,0.2%&0.6%,-0.6%&-0.7%,nt
Cc1ccc(NC(=O)C(C)Sc2nnc(C)n2C2CC2)cc1S(=O)(=O)N1CCOCC1 (centres undefined),-3.3,23%,nt,-14%,2.0%,2.2%,nt
COc1ccc2cc(CCNC(=O)C3CC3)c(=O)[nH]c2c1,-0.9,17%,2%,6%,?,-0.7%,0.1
CCCn1c(SCC(=O)Nc2nc3ccccc3s2)nc2c1c(=O)n(C)c(=O)n2C,0.2,-16%,14%,-11%,-0.8%,5.7%,-2.0
Cn1c(SCc2cccc(C(F)(F)F)c2)nnc1-c1ccco1,-3.2,0%,-6%,8%,0.7%,-2.2%,5.6
COCCNC(=S)N1CCN(c2nc(-c3cccc(OC)c3)cs2)CC1,5.7,-49%[inhibitor],9%,-17%,nt,1.2%,0.8
CC1CCCN(CCC(=O)c2ccc(Br)cc2)C1 (centres undefined),0.2,-3%,-14%,2%,2.9%,1.9%,2.7
COc1ccc(NC(=O)C2CCCN(S(=O)(=O)c3cccc4cccnc34)C2)c(OC)c1 (centres undefined),-2.6,-29%,18%,-17%,-2.6%,1.6%,-0.7

# Screening data deposited in PubChem by National Center for Advancing Translational Sciences (NCATS).
